Screening results deposited in PubChem BioAssay by National Center for Advancing Translational Sciences (NCATS).
SARS PLP yeast: SARS-CoV PLP inhibition in yeast. S. cerevisiae expressing SARS-CoV PLpro, growth rescue; control for the full effect not named in the record. Potency, µM (doses to about 32.9 µM), without a hit: at the highest dose activity, positive = growth rescue. 0.19% of 330,000 active; active means well fitted rising curve with a large enough effect; inconclusive means small, poorly fitted or top-dose-only effect; inactive means no such curve, though single readings can be large or run the other way; note: 0% is about no effect; nearly all actives have a fitted effect of over 55% in size; growth read by luminescence after 48 h
StopGo reporter: FMDV 2A StopGo reporter, luciferase signal. human cells with a luciferase reporter of 2A StopGo recoding; control for the full effect not named in the record. Potency, µM (top dose mostly 57.9 µM), inactives show at the highest dose signal change, negative = less light. 1.2% of 410,000 active. AID 1159524; active = well fitted falling curve with a large enough effect; inconclusive = small, poorly fitted or top-dose-only effect; inactive = no such curve, though single readings can be large or run the other way; tested in HEK293T cells; note: % is set by controls: 0 for no effect and ±100 for the full control effect; nearly all actives have a fitted effect of over 45% in size; luciferase light after 4 h
RE007 growth inh: less growth of the S. pombe RE007 Vpr strain. S. pombe RE007 Vpr strain, BacTiter-Glo ATP luminescence, 24 h; control for the full effect not named in the record. Potency, µM (titrated, usually from 92.2 µM), without a hit: at the highest dose activity change, negative = less growth. 0.21% of 360,000 active; active = well fitted falling curve with a large enough effect; inconclusive = small, poorly fitted or top-dose-only effect; inactive = no such curve, though single readings can be large or run the other way;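 note: % is set by controls: 0 for no effect and ±100 for the full control effect; nearly all actives have a fitted effect of over 50% in size; the assay follows cell death caused by Vpr and the record does not say whether a fall means rescue or toxicity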
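Fission yeast RE007 carrying one integrated HIV-1 vpr copy, seeded at OD 0.01 in PMG+AL medium with 23 nL pinned compound. Grown 24 h at 30 degrees; viability read by BacTiter-Glo luminescence after 5 min.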
Numbers without * were called inactive; ? = inconclusive; [ ] = dose if it differs, or a comment. Potency is the fitted concentration of half-maximal effect. The list is partial; the hit share may differ from the screen's.

SMILES	SARS PLP yeast	StopGo reporter	RE007 growth inh
C#CCOCCOCCOCCNc1nc(N2CCN(C(=O)CCCCCCCCCCNC(=O)[C@@H]([C@H](C)O)n3cc(C)nn3)CC2)nc(N2CCN(C(=O)CCCCCCCCCCNC(=O)[C@@H]([C@H](C)O)n3cc(C)nn3)CC2)n1	-0.4%	-9.4%	3.3%
CN(CCOc1ccc(Br)cc1)CC(=O)Nc1cccc(S(=O)(=O)NC2=NCCC2)c1	-5.0%	-22.6%	1.0%
COc1ccc(C(=O)COC(=O)c2sc(C)nc2C)cc1OC	-0.5%	-17.6%	-8.8%
CC(C)C(=O)N[C@@H]1c2ccccc2CC[C@H]1OCc1ccccc1	26.0%	-19.3%	11.2%
COc1ccc(C(=O)OCC(=O)Nc2ccccc2)cc1[N+](=O)[O-]	-5.9%	1.8%	-6.7%
Cc1ccc(S(=O)(=O)N2CCN(c3ncnc4ccccc34)CC2)cc1	9.1%	?	7.3%
CCC(CO)Oc1cc(NC(=O)c2cccc(C)c2)c2ncn(C(C)C)c2c1 (stereo not drawn)	-3.2%	-12.0%	0.2%
CSCc1c(C(=O)OCC(=O)NC2CCCCC2)oc2ccccc12	0.5%	-18.2%	0.8%
Nc1c(N(Cc2ccco2)C(=O)c2cccc(Cl)c2)c(=O)[nH]c(=O)n1Cc1ccccc1	0.9%	-13.9%	0.2%
COc1ccc(-n2c(C)cc(C(=O)COC(=O)c3ccc(O)cc3O)c2C)cc1	-11.5%	-24.3%	0.0%
COc1cccc(OC)c1C(=O)OCC(=O)NC1CCCCCC1	-4.2%	8.5%	-1.2%
Cc1ccc(N2C(=O)CC(N3CCN/C3=C3\CC/C(=C\c4ccccc4)C3=O)C2=O)cc1 (stereo not drawn)	-0.1%	?	5.8%
Cc1ccc([C@H]2C(C(=O)O)=CC[C@@H](c3ccc(Cl)cc3)N2S(=O)(=O)c2ccccc2C)cc1	-4.2%	-19.3%	5.0%
CC1CC(C)CN(C(=O)COc2ccc([N+](=O)[O-])cc2Cl)C1 (stereo not drawn)	-4.7%	-24.2%	3.9%
Cc1ccc(S(=O)(=O)N2CCCCC2)cc1NC(=O)c1cccs1	-2.8%	-14.3%	-1.5%
O=C(CN1CCN(C(=O)COc2cccc(F)c2)CC1)Nc1ccc(Cl)c(C(F)(F)F)c1	1.1%	?	-20.8%
Nc1c(C(=O)CSc2nncn2-c2ccccc2)c(=O)[nH]c(=O)n1C1CC1	6.7%	-8.1%	0.7%
Cc1oc(=O)cc(OCc2ccccc2)c1C	-15.0%	-15.7%	-11.6%
Nc1ncnc2c1ncn2[C@@H]1O[C@H](CNCc2ccc(OCc3ccccc3)cc2)[C@@H](O)[C@H]1O	-10.4%	15.9%	-8.4%
C[C@@]12CCC3[C@@](CCC4[C@@]3(C)CCC[C@@]4(C)C(=O)N3CCCCC3)(CC1=O)C2 (stereo partly drawn)	-3.2%	?	-2.3%
Cc1ccc(C(O)P(=O)(Oc2ccccc2)Oc2ccccc2)cc1 (stereo not drawn)	1.6%	-19.9%	9.1%
Cc1cccc(NC2=C(Cl)C(=O)OC2OC(C)C)c1 (stereo not drawn)	-3.8%	7.9%	4.7%
CS(=O)(=O)c1ccc(C(=O)NNC(=O)c2ccccc2-n2cccc2)cc1	4.7%	-7.8%	-9.3%
CC1CCCC(NC(=O)COC(=O)c2cn(C)c3ccccc23)C1C (stereo not drawn)	0.9%	-17.0%	2.3%
CC(C#N)Sc1ccc(S(=O)(=O)N2CCCCC2)cn1 (stereo not drawn)	-0.1%	?	-12.1%

Limited to SARS PLP yeast, for some of the entries so far:
canonical_smiles	SARS PLP yeast
Cc1ccc([C@H]2C(C(=O)O)=CC[C@@H](c3ccc(Cl)cc3)N2S(=O)(=O)c2ccccc2C)cc1	-4.2%
CC1CC(C)CN(C(=O)COc2ccc([N+](=O)[O-])cc2Cl)C1 (stereo not drawn)	-4.7%
Cc1ccc(S(=O)(=O)N2CCCCC2)cc1NC(=O)c1cccs1	-2.8%
O=C(CN1CCN(C(=O)COc2cccc(F)c2)CC1)Nc1ccc(Cl)c(C(F)(F)F)c1	1.1%

The list continues:
SMILES	SARS PLP yeast	StopGo reporter	RE007 growth inh
CCOC(=O)[C@H]1[C@H]2COc3ccc(Br)cc3[C@@H]2N2C(=O)[C@H](C)NC(=O)[C@@]12C	0.6%	-14.5%	3.1%
CC(OC(=O)CCN1C(=O)C2CC=CCC2C1=O)C(=O)c1ccc(F)cc1 (stereo not drawn)	-6.9%	-18.9%	5.2%
O=C(Nc1ccc(C2=CN(Cc3ccccc3)CCC2=O)cc1)OCc1ccccc1	-14.6%	-22.6%	8.9%
O=C(c1cccc(S(=O)(=O)Nc2ccc(F)cc2)c1)N1CCOCC1	-0.2%	7.8%	17.7%
CCOc1ccc(S(=O)(=O)Nc2ccc(C(=O)NCC(c3ccc(OC)cc3)N3CCOCC3)cc2)cc1 (stereo not drawn)	1.3%	5.7%	21.0%
COc1cc(OC)cc(-c2c(C#Cc3ccsc3)c3cc(-c4ccc5c(c4)OCO5)ccc3n2C)c1	-2.5%	-5.4%	-1.9%
O=C(CN1C(=O)NC2(CCCCCCC2)C1=O)NCc1ccc(F)cc1	-2.1%	-18.3%	-8.8%
CC1CCN(C(=O)c2[nH]cnc2C(=O)N(C)Cc2ccccc2)CC1	-1.8%	1.4%	-3.2%
CCCCn1c(O)c(N=Nc2ccccc2O)c2ccccc21	0.1%	-15.0%	-6.9%
CCOC(=O)C(=O)c1csc(NC(=O)CCSc2ccc(C)cc2)n1	-0.5%	-25.2%	-4.1%
O=C(OCC(=O)c1ccc[nH]1)c1ccccc1	-0.8%	0.0%	11.1%
CCCSc1ccc([C@@H]2[C@H]3C(=O)N(CC)C(=O)[C@H]3[C@]3(C(=O)OC)CCCCN23)cc1	-2.2%	?	3.7%
CC(=O)Nc1ccc(S(=O)(=O)N2CCn3cccc3C2C)cc1 (stereo not drawn)	5.5%	-21.8%	4.0%
COc1cc(C#Cc2c(-c3cncn3C)n(C)c3ccc(Br)cc23)cc(OC)c1	-4.4%	?	?
CCOC(=O)C1=NS(=O)(=O)NC(C)=C1	22.3%	-7.3%	3.3%
NCCCCCNC(=O)c1nc[nH]c1C(=O)NCC(=O)OCc1ccccc1	9.7%	-23.2%	-5.7%
COc1ccc(C(=O)CSc2n[nH]c(=O)[nH]c2=O)cc1	0.6%	0.6%	2.5%
Cc1cc(NC(=O)COC(=O)c2c(Cl)cccc2Cl)no1	0.4%	-12.2%	-4.1%
CC(NC(=O)CSc1nnnn1C1CC1)c1ccccc1Br (stereo not drawn)	6.4%	48.4%	-10.1%
CCCCC1CCC(C(=O)N(CC(C)C)c2c(N)n(Cc3ccccc3)c(=O)[nH]c2=O)CC1 (stereo not drawn)	0.5%	?	-10.5%
CN(C)S(=O)(=O)c1cccc(-n2sc3ccccc3c2=O)c1	-5.7%	21.7%	-11.1%
CCN1C(=O)[C@H]2[C@H]3CN=C(SCc4ccc(C(=O)OC)cc4)N3[C@@](C)(C(=O)OC)[C@H]2C1=O	-5.4%	-16.3%	-7.7%
COc1cc(C#Cc2c(-c3cncn3C)n(C)c3ccc(-c4ccc(OC)c(OC)c4)cc23)cc(OC)c1	2.5%	-18.9%	-4.2%
COc1ccccc1C(=O)NCCC(=O)NCC1CCCO1 (stereo not drawn)	0.0%	-11.4%	25.4%
Nn1c(SCC(=O)NCCc2ccc(S(N)(=O)=O)cc2)nnc1C1CCCCC1	-0.8%	-6.1%	2.2%

Continued.
SMILES	SARS PLP yeast	StopGo reporter	RE007 growth inh
CCOC(=O)[C@H]1[C@H]2COc3ccc(C)cc3[C@@H]2N2C(=O)CN(Cc3ccccc3)C(=O)[C@@]12C	-2.9%	0.0%	-1.7%
Cc1ccc(S(=O)(=O)N(C)c2ccc(OC(=O)c3cccs3)cc2)cc1C	2.2%	-5.7%	4.1%
O=C(N/N=C/c1ccccc1O)C1SCCCS1	4.2%	58.2%[activator]	2.0%
COc1ccc(C2/C=C\CC(NS(=O)(=O)c3ccc(C)cc3)CC(=O)N2Cc2ccccc2F)cc1 (stereo not drawn)	15.3%	-3.4%	9.4%
O=C(CN1C(=O)NC2(CCCC2)C1=O)NCc1ccc(Cl)cc1	-6.4%	-14.8%	9.3%
Cc1ccc(NC(=O)CN2C(=O)C(=O)N(C3CCCC3)C2=O)c(Cl)c1	0.2%	-3.9%	-6.1%
Cc1ccccc1C(=O)OCC(=O)Nc1cccc(S(=O)(=O)NC2=NCCC2)c1	-3.1%	19.7%	20.4%
CCCCCCCN1CCN=C1Nc1ccccc1	-0.5%	-24.2%	-14.7%
Cc1ccnc(NC(=O)c2cc(S(=O)(=O)NCc3ccccc3)ccc2C)c1	-6.5%	51.1%[activator]	1.7%
CCN(c1ccccc1)S(=O)(=O)c1cc(C(=O)OC2CCOC2=O)ccc1C (stereo not drawn)	-5.5%	-1.4%	-2.3%
Cc1ccccc1C(=O)NCC(=O)OC(C)C(=O)NC(C)CCc1ccccc1 (stereo not drawn)	-3.4%	-15.1%	-3.1%
CCN(C(=O)COC(=O)c1c(C)nsc1NC)c1ccccc1	2.1%	?	6.5%
Cn1c2ccccc2c(=O)c2ccc(NCCc3cccs3)cc21	3.0%	1.7%	-0.6%
CCOC(=O)C1=C(COC(=O)CSc2ccc(C)cc2)NC(=O)NC1C (stereo not drawn)	0.6%	-4.6%	-6.1%
CN(C)S(=O)(=O)c1cccc(NC(=O)c2cc([N+](=O)[O-])ccc2N2CCCCC2)c1	-17.5%	-19.1%	11.5%
CSc1ncccc1C(=O)OCC(=O)Nc1ccc2c(c1)CCC2	-5.8%	-0.3%	3.5%
CC(C)NC(=O)Nc1cccc2c1O[C@H](CN(C)S(=O)(=O)c1cccs1)[C@@H](C)CN([C@H](C)CO)C2=O	-2.7%	3.9%	-0.1%
COc1cccc(-c2sc3ccc(OC)cc3c2C#CCC(C)O)c1 (stereo not drawn)	-0.1%	-17.9%	-0.4%
O=c1[nH]c(=S)[nH]c(O)c1N=Nc1cc(S(=O)(=O)Nc2ccc(Cl)cc2)ccc1Cl	-1.4%	5.8%	10.5%
C[C@]12c3[nH]c4ccccc4c3CCN1C(=O)C(CC(=O)NCCN1CCOCC1)C[C@@H]2C(=O)N1CCCCC1 (stereo partly drawn)	4.4%	-11.8%	-2.8%
COc1ccc(-c2noc(CCC(=O)N3CCN(c4cccc(C)c4C)CC3)n2)cc1	-17.5%	-10.9%	-1.7%
COc1cc(OC)cc(C(=O)NNC(=O)CNC(=O)c2cccs2)c1	0.4%	-19.0%	-10.6%
CC1CCN(S(=O)(=O)c2ccc3nc(-c4ccccn4)cc(C(=O)NCCN(C)Cc4ccccc4)c3c2)CC1	-0.2%	2.2%	7.7%
O=C(Nc1ccc(-n2cnnn2)cc1)c1cccc(S(=O)(=O)N2CCCC2)c1	0.0%	?	2.1%
CCC(C)Sc1ccc([C@H]2N[C@@](Cc3ccccc3)(C(=O)OC)[C@H]3C(=O)N(C)C(=O)[C@@H]23)cc1 (stereo partly drawn)	8.6%	0.0%	19.4%

Given as labelled records: 2 of the compounds above
CCOC(=O)[C@H]1[C@H]2COc3ccc(C)cc3[C@@H]2N2C(=O)CN(Cc3ccccc3)C(=O)[C@@]12C
  SARS PLP yeast = -2.9% | StopGo reporter = 0.0% | RE007 growth inh = -1.7%
COc1ccc(-c2noc(CCC(=O)N3CCN(c4cccc(C)c4C)CC3)n2)cc1
  SARS PLP yeast = -17.5% | StopGo reporter = -10.9% | RE007 growth inh = -1.7%

Further structures.
SMILES	SARS PLP yeast	StopGo reporter	RE007 growth inh
Cc1ccc(C(=O)n2nc(-n3cccc3)c3c(C)cc(C)nc32)cc1	-3.2%	-8.7%	-8.4%
CC1(NC(=O)c2ccccc2)CCN(CCCc2ccccc2)C1=O (stereo not drawn)	3.4%	-16.5%	-6.5%
CCC(O)(c1ccc(OC)cc1)C(CN1CCOCC1)c1ccccc1 (stereo not drawn)	-2.6%	-12.6%	4.8%
CCCN(CC(=O)Nc1ccccc1C)C(=O)c1ccc2c(c1)S(=O)(=O)N=C1CCCCCN12	0.5%	8.2%	-6.3%
Nc1ccc(N2CCOCC2)c(S(=O)(=O)Nc2ccccc2Cl)c1	3.6%	1.9%	-2.3%
COc1ccc(C(CNC(=O)c2cccc(S(=O)(=O)N3CCCC3)c2)N2CCCC2)cc1 (stereo not drawn)	6.1%	5.1%	-14.5%
CCOC(=O)C1=C(c2ccccc2)NC(=O)NC1c1cc(OC)c(OC)c(OC)c1 (stereo not drawn)	-1.1%	-6.8%	1.3%
COC(=O)C1=C(c2cccc(Cl)c2)C[C@@H]2CC[C@H]1N2C(=O)N1CCCC1	-4.4%	-26.2%	-2.7%
Cc1ccc(C23OCCN2CCn2nc4ccccc4c23)cc1 (stereo not drawn)	-3.8%	-14.6%	-17.6%
COc1cccc(NC(=O)c2nn(-c3ccc(OC)cc3OC)c(=O)c3ccccc23)c1	-1.8%	-11.9%	2.3%
CCN(CC(=O)NCc1cccs1)C(=O)/C=C/c1cc(OC)ccc1OC	4.7%	-19.4%	19.3%
COc1ccc(C(=O)O)cc1N1C(=O)Nc2ccccc2N1O	0.5%	1.1%	7.1%
